# Screens: PubChem, Broad Institute
# ALR H2O2 inh = inhibitors of human ALR sulfhydryl oxidase, primary screen, biochemical, H2O2 detection, HRP-luminol luminescence, single point | FAD-linked sulfhydryl oxidase ALR (Homo sapiens), P55789 | purified ALR, DTT oxidation | inhibition, % (concentration not given with the values) | 290,000 compounds, 3.8% hits;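 active = mean and each replicate at 75% or more; inconclusive = only one of the two met; inactive = neither met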;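 also: stock transfer was 7.5 nL into about 7.5 µL; 0% = neutral wells and 100% = wells with inactivated enzyme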
# Target sequence (P55789 whole entry, looked up): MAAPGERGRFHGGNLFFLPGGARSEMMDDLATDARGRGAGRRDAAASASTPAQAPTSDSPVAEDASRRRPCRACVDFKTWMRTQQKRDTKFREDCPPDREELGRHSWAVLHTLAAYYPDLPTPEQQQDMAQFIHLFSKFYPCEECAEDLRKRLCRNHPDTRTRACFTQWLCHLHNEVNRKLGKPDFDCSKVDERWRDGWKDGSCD
# FGF22 binding = binders of human FGF22 protein, primary screen, FGF22 synaptogenesis inhibitor project, biophysical, thermal shift, single point. calls only at 9.99 µM. recombinant FGF22 thermal shift, SYPRO orange fluorescence; percent of sucrose octasulfate shift, DMSO zero. 340,000 compounds, 1.5% hits. Fibroblast growth factor 22 (Homo sapiens), Q9HCT0;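 active = melting point raised past a set limit in the mean and every replicate; inconclusive = no clear call; three in four hits are not shown here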
# Target sequence (Q9HCT0 whole entry, looked up): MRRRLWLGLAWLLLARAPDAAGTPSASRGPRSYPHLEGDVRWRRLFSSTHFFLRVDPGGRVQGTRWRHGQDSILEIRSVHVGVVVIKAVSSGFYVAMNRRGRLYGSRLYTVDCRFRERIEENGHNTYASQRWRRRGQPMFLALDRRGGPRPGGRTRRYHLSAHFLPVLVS
# RanGTP-Imp inh = inhibitors of RanGTP-importin-beta interaction, primary screen, biochemical, FRET, CFP-Ran, YFP-importin-beta, homogeneous; AID 2216, 2009; cell-free CFP-Ran/YFP-importin-beta FRET ratio; inhibition, % (concentration not given with the values); 300,000 compounds, 1.1% hits; Ran GTPase (GTP-bound) - importin-beta complex;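 active = most replicates above 15%; inconclusive = exactly half above 15%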;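 also: 0% = DMSO wells and 100% = Ran loaded with GDP instead of GTP; wells of about 40 µL received 100 nL stock; the first replicate is given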
# T cruzi repl = inhibitors of intracellular T. cruzi growth, primary screen, luminescence, NIH3T3 host cells; 300,000 compounds, 1.4% hits; T. cruzi beta-gal in NIH3T3, 90 h; inhibition, % (no concentration beside the values); AID 1885, 2009;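 active = mean inhibition across valid replicates above about 55%, limit read from the data; inconclusive = mean below that limit but half or more replicates reach it; inactive = mean below it, under half of replicates reach it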;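 also: signal also drops with host cell toxicity which is not excluded here; 0% = plate median of DMSO wells and 100% = zero luminescence signal; higher percent means less beta-gal luminescence so fewer parasites; stock transfer was 50 nL into about 50 µL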
# Ecoli rRNA inh = reduced GFP signal of wild-type E. coli, primary screen, bacterial rRNA inhibitor project, GFP/RFP fluorescence, OD600, single point; E. coli WT GFP vs humanized-ribosome RFP mutants, 24 h; hits give low values; DMSO median 0, no signal -100; GFP signal change (wild-type ribosome), % (concentration not given with the values); 350,000 compounds, 1.6% hits;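 active = significant combined selectivity score with lowered wild-type GFP, culture density cut under 30%, mutant RFP and density less affected; inactive = any of these conditions unmet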; also: one replicate is shown; some compounds called inactive have numbers as strong as hits
# MLL AF4-AF9 inh = inhibitors of AF4 peptide binding to AF9, primary screen, biochemical, AlphaScreen, biotin-AF4 peptide, FLAG-AF9, single point; Protein AF-9 (Homo sapiens), P42568; inhibition, % at 10 µM; 350,000 compounds, 0.47% hits;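 active = every replicate reaching a set inhibition limit, whatever the replicate mean, cut at about 25% in these data; inconclusive = mean inhibition reaches that limit but some replicates miss it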;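 also: 0% = plate neutral control median and 100% = total signal loss; the record names both 10 and 1 µM as test concentration; the first replicate is given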
# Target sequence (P42568 whole entry, looked up): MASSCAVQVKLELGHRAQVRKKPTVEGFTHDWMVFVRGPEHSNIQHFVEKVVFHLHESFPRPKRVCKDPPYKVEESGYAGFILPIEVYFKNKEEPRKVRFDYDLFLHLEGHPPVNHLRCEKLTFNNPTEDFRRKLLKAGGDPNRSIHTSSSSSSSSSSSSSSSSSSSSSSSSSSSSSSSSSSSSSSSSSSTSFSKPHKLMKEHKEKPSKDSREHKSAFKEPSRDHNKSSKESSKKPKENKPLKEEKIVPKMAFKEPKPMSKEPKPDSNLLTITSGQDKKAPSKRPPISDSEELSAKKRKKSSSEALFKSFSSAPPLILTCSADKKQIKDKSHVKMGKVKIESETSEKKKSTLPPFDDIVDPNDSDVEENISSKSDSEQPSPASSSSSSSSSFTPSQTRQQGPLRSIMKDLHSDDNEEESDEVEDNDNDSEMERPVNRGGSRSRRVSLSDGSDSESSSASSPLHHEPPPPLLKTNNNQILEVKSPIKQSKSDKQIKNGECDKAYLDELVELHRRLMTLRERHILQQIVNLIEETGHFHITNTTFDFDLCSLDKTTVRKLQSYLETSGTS
# Calb FLC = C. albicans growth inhibition with fluconazole, primary screen, CaCi-2 strain, Alamar Blue fluorescence | 300,000 compounds, 0.57% hits | AID 1979, 2009 | C. albicans CaCi-2 (fluconazole-resistant clinical isolate) + fluconazole, 48 h | growth inhibition, % (concentration not given with the values);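 active = most replicates above 75%; inconclusive = exactly half above 75%; inactive = most below 75%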;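 also: all wells also contain fluconazole at 8 µg/ml as a sub-toxic cotreatment; 0% = median of DMSO wells and 100% = median of geldanamycin control wells; wells of about 8 µL received 7.5 nL stock; the first replicate is given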
# Beta apoptosis = inhibitors of cytokine-induced beta cell apoptosis, primary screen, luminescence; INS-1E cytokine-induced death, ATP luminescence, 48 h; percent of positive-control rescue, neutral wells zero; protection from apoptosis, % (no concentration beside the values); 300,000 compounds, 0.8% hits;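 active = all replicates at 75% or more, or half of them and the mean; inconclusive = half reach 75% but not the mean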;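 also: 0% = cytokine-treated negative control wells and 100% = positive control rescue; higher means more ATP so stronger rescue from cytokine killing; wells of about 40 µL received 100 nL stock; the first replicate is given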
# Ecoli rRNA inh OD600 = also measured in Ecoli rRNA inh; calls as there; OD600 change, %; measured here: OD600 growth;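 optical density of the mix in the first replicate; 0 = DMSO median and -100 = no signal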
# Ecoli rRNA inh RFP = recorded beside Ecoli rRNA inh, whose call it bears; RFP signal change, %; measured here: RFP humanized mutant strains;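 first replicate; 0 = DMSO median and -100 = no signal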
# Numbers without * were called inactive; i = inactive; ? = inconclusive; . = not tested or not shown. These rows are one share of the data; count on the stated rates, not on these rows.
entry	SMILES	ALR H2O2 inh	FGF22 binding	RanGTP-Imp inh	T cruzi repl	Ecoli rRNA inh	Ecoli rRNA inh OD600	Ecoli rRNA inh RFP	MLL AF4-AF9 inh	Calb FLC	Beta apoptosis
1	O=c1[nH]c(-c2ccccc2O)nc2c1CCCC2	-18	.	5.4	-15	.	.	.	.	3	7
2	Cc1cc(C)cc(OCC(=O)NNC(=O)CCC(=O)NCc2ccccc2)c1	-2	.	-2.2	-3	16	8	2.8	.	2	-3
3	O=C(OCc1nc2ccccc2s1)c1cccc(N2C(=O)CCC2=O)c1	.	i	-0.4	-8	8	8	5.9	-0.5	9	-2
4	Cc1ccc(NS(=O)(=O)c2ccc3[nH]c(=O)[nH]c3c2)c(C)c1	-3	i	-3.5	-7	-7	-11	-0.6	-0.5	3	-7
5	CCn1c(C)[n+](CCOCC[n+]2c(C)n(CC)c3cc(Cl)c(Cl)cc32)c2cc(Cl)c(Cl)cc21	3	i	.	.	15	11	5.6	-4.3	.	-3
6	COC(=O)CSc1nc(-c2ccc(F)cc2)cc(C(F)(F)F)n1	6	.	2.8	3	.	.	.	.	-3	2
7	CCSc1nc2ccccc2c(=O)n1-c1c(C)n(C)n(-c2ccccc2)c1=O	-6	i	1.9	2	8	15	1.3	-1.0	-11	-6
8	Cc1ccc(-c2nnc(SCC(=O)N3CCCC3)o2)cc1C	99*	.	3.8	-3	.	.	.	.	5	-2
9	CC(=O)Nc1ccc(SCC(=O)Nc2ccc(Cl)cn2)cc1	.	i	-3.0	-11	-2	-6	0.2	-1.6	-10	4
10	CC(OC(=O)C1CC1)C(=O)Nc1cc(Cl)cc(Cl)c1 (stereo not drawn)	1	.	.	.	-31	-70	-3.1	7.4	.	5
11	COC(=O)C1(Cc2cc(-c3ccc([N+](=O)[O-])cc3)no2)CCN(C(=O)OC(C)(C)C)CC1	-1	i	1.0	-2	10	0	-4.1	4.2	3	1
12	COc1cc(NC(=S)Nc2ccc(S(=O)(=O)N3CCOCC3)cc2)cc(OC)c1OC	32	i	-0.1	-10	-5	-7	-15	5.3	-4	-9
13	CN(Cc1ccccc1)C(=O)CCC1CCN(S(=O)(=O)N(C)C)CC1	0	i	-3.0	-7	-2	2	-1.3	0.6	10	.
14	CCc1nnc(NC(=O)C2CCCN(S(=O)(=O)c3ccccc3)C2)s1 (stereo not drawn)	0	i	1.9	4	-11	-9	1.2	1.8	9	.
15	CCC(C)(c1nnnn1-c1c(C)cccc1C)N(N=O)c1cccc(C(F)(F)F)c1 (stereo not drawn)	.	.	-0.5	39	.	.	.	.	3	0
16	CCc1cccc(C)c1NC(=O)CO/N=C(\N)CC(=O)NC1CCCCC1	3	i	-8.8	-11	15	4	2.8	0.8	-24	-7
17	CC(C)CCN1CCN(Cc2ccc3nsnc3c2)CC1CCO (stereo not drawn)	-6	.	-2.6	42	.	.	.	.	-2	0
18	CCOc1cccc(C(=O)Nc2cc(-c3nn4c(C)nnc4s3)ccc2C)c1	-5	i	1.0	-1	2	9	-0.5	3.2	9	-2
19	COc1ccccc1-c1nc(C#N)c(NCc2ccc(F)cc2)o1	12	.	1.8	0	.	.	.	.	-3	-2
20	Cc1cc(NC(=O)c2c(F)cccc2Cl)no1	4	i	?	-7	8	3	-0.3	0.2	-5	-6
21	O=C(CC12CC3CC(CC(C3)C1)C2)NC(=S)NCc1ccco1	7	i	-1.7	56*	-25	-34	5.2	0.0	-22	12
22	O=C(CCc1ccccc1)NNC(=O)c1ccncc1	9	i	.	.	6	12	-1.9	0.4	.	-2
23	CCCCCCc1cc2cc(S(=O)(=O)c3ccc(Cl)cc3)c(=O)oc2cc1O	1	i	166*	-1	-11	6	-1.7	-1.0	-2	2
24	CC(OC(=O)c1cc(Br)ccc1O)C(=O)NCc1ccc2c(c1)OCO2 (stereo not drawn)	-13	i	6.3	-14	2	5	-1.2	-7.8	.	-1
25	Cn1ncc2c(NNC(=O)Cc3cccc4ccccc34)ncnc21	.	.	6.7	-3	.	.	.	.	7	2
26	CCN1CCc2c(OCC(=O)N3N=C(c4cccs4)CC3c3ccc(F)cc3)cccc2C1=O (stereo not drawn)	-19	.	1.6	4	.	.	.	.	3	9
27	Cc1ccc(C)c(NC(=S)c2ccccn2)c1	4	.	0.0	41	.	.	.	.	-6	1
28	Cc1ccc(C(=O)NCCc2cccs2)cc1	-11	i	0.7	-7	12	-7	-0.3	-3.6	41	-5
29	COc1ccc(OC)c(/C(C)=N\NC(=O)c2cc3cc(Cl)ccc3n2C)c1	-66	i	0.6	-2	-24*	-9.4*	-0.8*	2.3	1	7
30	CN(CC(=O)Nc1c(Cl)cccc1Cl)C(=O)c1ccccc1-c1nc2ccccc2s1	-7	i	-3.0	0	-38	-52	-16	3.7	10	-8
31	C1=CC2CC1CC2CNCc1ccco1 (stereo not drawn)	-8	.	4.3	-4	.	.	.	.	-6	-1
32	COC(=O)CN1C(=O)[C@H]2[C@@H](C3CC3)N3C(=O)CN(Cc4ccc(-c5ccccc5)cc4)C(=O)[C@@]3(Cc3ccccc3)[C@H]2C1=O	-9	i	3.0	0	-8	-18	-2.4	2.8	-2	2
33	COc1ccc(C2CC(=O)C=C(NCC3CCCO3)C2)cc1 (stereo not drawn)	0	.	-3.0	12	.	.	.	.	8	-4
34	O=C(O)CSCc1ccc(C(=O)O)o1	-5	.	4.0	-27	.	.	.	.	-1	-3
35	O=C(O)c1ccc(N/N=C/c2cc3cc4c(cc3nc2Cl)OCCO4)cc1	11	i	1.7	2	4	8	0.4	-18	-4	-10
36	CSCC[C@H](NC(=O)N1CCn2c1nc1ccccc12)C(=O)NCc1ccc(F)cc1	-21	i	2.1	15	-3	10	2.3	0.8	12	9
37	CCOC(=O)C1CCCN(C(=O)c2ccccc2NC(C)=O)C1 (stereo not drawn)	-8	.	3.1	-7	.	.	.	.	-2	0
38	Cn1c(N)c(N=Nc2ccc(S(N)(=O)=O)cc2)c(=O)n(C)c1=O	16	i	4.6	-11	0	1	-2.7	2.9	.	-2
39	N#Cc1ccc(NC(=O)CCc2nc3ccccc3s2)cc1	4	.	2.4	-10	.	.	.	.	-7	-4
40	Cc1nc(/N=C\c2ccc(N(C)C)cc2)sc1C	.	i	2.1	-18	19	14	2.8	.	-3	-8
41	COc1cccc(C2C(C#N)=C(N)SC(c3ccccc3)C2[N+](=O)[O-])c1 (stereo not drawn)	.	i	2.5	0	-24	-46	-1.2	5.7	-43	-5
42	CC(=O)Nc1ccc(Sc2ncnc3scc(-c4ccccc4)c23)cc1	.	.	4.1	15	.	.	.	.	?	-6
43	O=[N+]([O-])c1cc(C(F)(F)F)ccc1NCCCCNS(=O)(=O)c1ccc2ccccc2c1	-2	.	-1.4	15	.	.	.	.	8	20
44	CCCCCCCC(=O)N/N=C(\C)c1ccc(N)cc1	29	.	2.2	-8	.	.	.	.	-76	2
45	Cn1c(N)c(-c2nc3cccnc3n2C)sc1=S	92*	i	6.0	-3	15	11	9.4	1.0	22	-1
46	Cc1ccc(S(=O)(=O)N2CCC(C(=O)Nc3ccccc3N3CCCC3)CC2)cc1	.	i	7.7	6	0	1	-1.9	4.2	-1	.
47	CCN(C(=O)c1cc2c(=O)[nH]c3ccc(C)cc3c2s1)c1ccc(OC)cc1	0	i	2.8	50	9	5	-1.3	0.3	1	8
48	Cc1cccc(C)c1NC(=O)CN	-12	i	-1.2	5	10	11	2.3	-1.8	-6	-2
49	O=C(COc1ccccc1)NCC(c1ccco1)N1CCCCC1 (stereo not drawn)	3	i	4.8	-6	12	7	1.8	1.5	-6	-9
50	COC(=O)c1ccc(CN2C(=O)NC(Cc3c[nH]c4ccccc34)C2=O)cc1 (stereo not drawn)	.	i	1.8	-6	3	4	4.5	-1.9	15	7
51	CC(C)CC(=O)N1CCC(O)(CS(=O)(=O)Cc2ccccc2)CC1	-12	.	4.7	-10	.	.	.	.	5	5
52	Cc1cc(C)cc(OCC(=O)Nc2ccccc2N2CCCCC2)c1	-6	.	-2.4	19	.	.	.	.	4	2
53	O=C(COC(=O)CNC(=O)C1CCCCC1)Nc1ccc(Br)cc1Br	.	i	.	.	6	15	-0.1	-3.5	.	0
54	O=C(NCCCN1CCOCC1)c1ccc(Br)cc1Br	.	i	1.7	-6	7	10	1.5	-1.1	1	.
55	COc1ccc(Cl)cc1NC(=O)CN(C)C(=O)Cc1ccc(-c2ccccc2)cc1	6	i	.	.	-1	-21	2.5	2.2	.	-3
56	CCOC(=O)c1ccc2c(c1)n(CCCS(=O)(=O)[O-])c(/C=C/c1ccc(Cl)cc1)[n+]2CC	-2	.	2.2	-2	17	14	3.1	-9.6	2	-7
57	Cc1ccc(S(=O)(=O)Nc2nc(C)c(NC(=O)OCCCl)s2)cc1	98*	.	2.7	-6	.	.	.	.	-17	-4
58	CC(C)(Oc1ccc(F)cc1)C(=O)OCC(=O)c1ccc(S(C)(=O)=O)cc1	-14	i	.	.	.	.	.	-1.0	.	-3
59	COc1ccc(CNC(=O)Nc2ccc(C)cc2C)cc1	-13	i	1.4	-10	11	11	-0.2	-1.9	1	3
60	COC(=O)[C@]1(CC(C)C)N[C@H](c2ccc(-c3ccccc3)cc2)[C@@H]2C(=O)N(C)C(=O)[C@@H]21	1	i	.	.	10	5	-0.6	-3.1	.	-4

# (continued)
entry	SMILES	ALR H2O2 inh	FGF22 binding	RanGTP-Imp inh	T cruzi repl	Ecoli rRNA inh	Ecoli rRNA inh OD600	Ecoli rRNA inh RFP	MLL AF4-AF9 inh	Calb FLC	Beta apoptosis
61	CN(Cc1nc2ccccc2c(=O)[nH]1)Cc1nc2ccsc2c(=O)[nH]1	-7	i	1.3	-22	6	-2	-4.7	-2.5	4	-6
62	Cn1c(=O)[nH]c(=O)c2c1nc(CN1CCN(c3ccccc3F)CC1)n2CCCc1ccccc1	-7	.	-3.6	35	.	.	.	.	4	10
63	COc1ccc(NC(=O)C(Cc2ccccc2)n2cccc2)cc1 (stereo not drawn)	1	i	3.1	1	-18	-12	-8.5	?	-1	0
64	Cc1cc(OCc2cc(C(=O)N(C)CC3CCOCC3)no2)cc(C)c1Cl	1	i	-1.1	-8	-12	-56	5.1	0.4	1	-7
65	CCc1ccc(N2CC(C(=O)NCC(C)(C)N3CCOCC3)CC2=O)cc1 (stereo not drawn)	0	i	.	.	.	.	.	2.2	.	2
66	Oc1ccc(-c2csc(Nc3cccnc3)n2)cc1	43	.	-1.1	33	.	.	.	.	-5	-11
67	O=C(Cn1cncn1)N/N=C/c1cccc(Cl)c1	-4	i	-1.2	2	3	7	0.8	-1.5	3	-1
68	Cc1cc(C)n2nc(C(=O)OCC(=O)NNC(=O)c3ccccc3)nc2n1	-1	i	.	.	6	11	-2.7	1.1	.	-6
